# 2A firefly: FMDV 2A StopGo reporter, firefly signal; Potency, µM (titrated, usually from 57.5 µM), for inactives: at the highest dose signal change, negative = less light; AID 1745856; 120,000 compounds, 0.23% hits; HEK cells with a luciferase reporter of 2A StopGo recoding; active = well fitted falling curve with a large enough effect; inconclusive = small, poorly fitted or top-dose-only effect; inactive = no such curve, though single readings can be large or run the other way; note: nearly all actives have a fitted effect of over 60% in size; overnight with compound
# 2A Renilla: lowers the Renilla signal of an FMDV 2A StopGo reporter; HEK cells with a luciferase reporter of 2A StopGo recoding; 120,000 compounds, 0.32% hits; Potency, µM (doses to about 57.5 µM), inactives show at the highest dose signal change, negative = less light; active means well fitted falling curve with a large enough effect; inconclusive means small, poorly fitted or top-dose-only effect; inactive means no such curve, though single readings can be large or run the other way; note: nearly all actives have a fitted effect of over 55% in size; overnight with compound
# Active calls of the source: *; ? = inconclusive; & = joins results of further samples; [ ] = dose if it differs, or a comment. % is set by controls: 0 for no effect and ±100 for the full control effect; potency is the fitted concentration of half-maximal effect. This is a subset (hit frequency here may not be typical).
item	SMILES	2A firefly	2A Renilla
1	Cc1cc(Cl)ccc1NC(=O)c1nn(CC(C)C)c(=O)c2ccccc12	1%	-4%
2	COc1ccc(C)cc1Nc1nc2cc(Cl)c(Cl)cc2nc1-n1nc(C)cc1C	-7%	7%
3	CCC(C)NC(=O)c1ccccc1NC(=O)CN1C(=O)c2cccc3cccc1c23 (configuration not stated)	-4%	56%[activator]
4	CCOc1cc(S(=O)(=O)n2ccnc2C(C)C)ccc1Cl	-15%	-8%
5	Cc1nn(C)c2sc(C(=O)N3CCN(S(=O)(=O)c4ccc(F)cc4)CC3)cc12	4%	-2%
6	Cc1ccc(NS(=O)(=O)c2cnc(N)nc2)c(C)c1	-9%&-12%	-3%&9%
7	CCn1cc(C(=O)Cn2c(C)nc3ccccc32)c2ccccc21	?	8.9µM*
8	CCc1ccc(C(=O)COC(=O)c2cccc(Cl)c2Cl)cc1	21%	0%
9	O=S1(=O)c2ccc(Br)cc2OC[C@H](Cc2ccccc2)N1Cc1cn(CCC2OCCCO2)nn1	?	?
10	CC(=O)Nc1ccc(NC(=O)c2ncoc2-c2ccco2)cc1	128%[activator]	0%
11	COc1ccc2c(C)c(CCC(=O)NCCc3ccccc3OC)c(=O)oc2c1	-11%	-11%
12	O=c1c(N2CCN(Cc3ccccc3)CC2)csc2ccc(F)cc12	60%[activator]	55%[activator]
13	COc1cccc(-c2nc(N3CCCCCC3)c3ccccc3n2)c1O	13%	-5%
14	CCN(CC)S(=O)(=O)c1ccc(OC(C)C)c(NC(=O)c2ccc3c(c2)NC(=O)C(C)S3)c1 (configuration not stated)	-3%	0%
15	CC(C)(C)C(=O)Nc1ccc(-c2nc3ccccc3o2)cc1	?	-2%
16	CCOC(=O)c1cccc(NS(=O)(=O)c2cc(-c3nn(C)c(=O)c4c3CCCC4)ccc2C)c1	-6%	123%[activator]
17	COC(=O)C(CC(C)C)NC(=O)C(Cc1ccccc1)NC(=O)OC(C)(C)C (configuration not stated)	-9%	5%
18	Cc1ccccc1NC(=O)C(=O)NCC1(c2ccccc2)CCCC1	-18%	-20%
19	CCOc1ccccc1Oc1c(C(F)(F)F)oc2cc(OC(=O)c3ccccc3F)ccc2c1=O	1%	-18%
20	O=C(NCc1cccnc1)C1CCC1	-5%	9%
21	Cc1ccc(C(=O)NNC(=S)NC(C)(C)C)cc1	?	-16%
22	CC(=O)c1ccc(N2CCN(C(=O)c3noc4c3CCc3sccc3-4)CC2)cc1	13%	?
23	CCOC(=O)c1cccc(NC(=O)c2ccc3c(c2)nnn3CC)c1	9%	-1%
24	COCCn1ccc2c(OCC(=O)Nc3cccc(C(F)(F)F)c3)cccc2c1=O	-10%&-4%	47%&47%[activator]
25	CC(NC(=O)Cn1nc(-c2ccc(F)cc2)oc1=O)c1ccccc1 (configuration not stated)	36%[activator]	-5%
26	CCOC(=O)c1c(C)n(CCOC)c2ccc(O)cc12	8%	-3%
27	Cc1cc(C)cc(N2C(=O)CSC23C(=O)N(CC(=O)NC2CCCCC2)c2ccccc23)c1 (configuration not stated)	9%	-5%
28	Nc1nc(CN2CCN(Cc3ccc4c(c3)OCO4)CC2)nc(Nc2ccccc2Cl)n1	-9%	-15%
29	COc1ccc(-c2nc(CS(=O)(=O)CC(=O)NCCc3ccc(Cl)cc3)c(C)o2)cc1	18%	17%
30	O=C(NCCc1cccc(Cl)c1)C1CCOCC1	29%	4%
31	CC(C)(C)c1ccc(C2CC(=O)c3cnc(NCc4ccccc4)nc3C2)cc1 (configuration not stated)	35%[activator]	-10%
32	Cc1nc(N(C)C)ncc1C(=O)NCc1ccccc1	21%	10%
33	CCCc1cc(C(=O)Nc2c(C)nn(Cc3c(Cl)cccc3Cl)c2C)no1	18%	1%
34	COc1ccc(CC(=O)Nc2c(C(=O)N3CCN(c4ccccc4)CC3)oc3ccccc23)cc1OC	-3%	151%[activator]
35	O=C(CBr)Nc1ccc(Cl)cc1C(=O)c1ccccc1F	-2%[11.5 µM]	67%[activator]
36	COc1cc(=O)n(-c2ccc(C)cc2)nc1C(=O)NCc1ccc(C)cc1	0%	1%
37	CC(C)(C)C(=O)N1N=C(c2ccc3c(c2)OCO3)CC1c1ccc2nccnc2c1 (configuration not stated)	0%	9%
38	Cc1ccc2ccc3cc(C(=O)N4CCN(c5ccccc5F)CC4)nc3c2[nH]1	-12%	3%
39	CC(C)n1c(SCc2nc3ccccc3c(=O)[nH]2)nnc1-c1ccco1	23%	8%
40	COCC(=O)N1CCN(c2oc(-c3ccccc3C)nc2S(=O)(=O)c2ccc(C)cc2)CC1	0%	22%
41	Cc1ccc(OCCSc2nc(C)c(Cc3ccccc3)c(=O)[nH]2)cc1	22%	-7%
42	O=C(O)C(C(=O)/C=C/c1ccccc1)=C1SCCS1	0%	?
43	Cc1ccc(Cl)cc1-n1c(CCC(=O)O)ccc1-c1cccs1	-12%	-8%
44	Cc1ccc(CS(=O)Cc2ccc(Cl)cc2)cc1 (configuration not stated)	48%[activator]	-7%[1.06 µM]
45	COc1ccc(C(=O)c2c(N)c(C(=O)Nc3ccccc3Cl)c3ccccn23)cc1	0%	17%
46	O=C(NCc1ccccn1)C1CCCN(C(=O)c2cccc(C(F)(F)F)c2)C1 (configuration not stated)	6%	0%
47	CC(Oc1ccccc1)C(=O)Nc1nnc(S(=O)(=O)N2CCCCCC2)s1 (configuration not stated)	-15%	5%
48	CCc1ccc2occ(CC(=O)N(Cc3cccs3)C3CCS(=O)(=O)C3)c2c1 (configuration not stated)	4%	6%
49	CCCCN(CC)CCNC(=O)C1CCN(c2nnc(C)c3c(C)n(-c4ccc(C)cc4)nc23)CC1	-23%	-8%
50	CCCOc1ccc(C(=O)Nc2ccc(Cl)c(-c3nc4ncccc4o3)c2)cc1	22%	1%
51	Cc1ccc(-n2nnnc2SCC(=O)N(C)c2ccccc2C(=O)NCc2ccco2)c(C)c1	-6%	32%[activator]
52	NC(=O)C1CCN(C(=O)CCCC(=O)N2CCN(C(=O)c3cc4ccccc4[nH]3)CC2)CC1	-7%	-10%
53	COc1ccc(Br)cc1Cn1nnc(C(=O)Nc2cccc(SC)c2)c1N	-3%&-5%	17%&8%
54	COc1ccc(OC)c(CNC(=O)CCCn2nc(C)c3c(C)n(-c4ccc(C)cc4)nc3c2=O)c1	-10%	5%
55	CCOC(=O)c1c(C)[nH]c(CCC(=O)NCc2cccc(C)c2)c1C	-8%	5%
56	Cc1cccc(OC(C)C(=O)NCC2(N(C)C)CCCCC2)c1C (configuration not stated)	-13%	-8%
57	Cc1ccc(S(=O)(=O)N2CCCc3cc(NC(=O)c4ccccc4Cl)ccc32)cc1	6%	67%[activator]
58	CC(C)C1=C/C(=C/c2ccccc2)C(C)/C(=C/c2ccccc2)C1=O (configuration not stated)	21%	16%
59	CCC(C)c1ccc2oc(-c3ccc(Cl)c(NC(C)=O)c3)nc2c1 (configuration not stated)	131%[activator]	-4%
60	CC(CNC(=O)c1cc(C2CC2)nc2ccccc12)c1ccccc1 (configuration not stated)	7%	96%[activator]

# Next section (2 carried over from the part before).
item	SMILES	2A firefly	2A Renilla
59	CCC(C)c1ccc2oc(-c3ccc(Cl)c(NC(C)=O)c3)nc2c1 (configuration not stated)	131%[activator]	-4%
60	CC(CNC(=O)c1cc(C2CC2)nc2ccccc12)c1ccccc1 (configuration not stated)	7%	96%[activator]
61	CN(CC(=O)Nc1ccccc1Cl)C(=O)COC(=O)COc1ccc2oc3c(c2c1)CCCC3	4%	-9%
62	Cc1ccc(Cl)cc1NC(=O)/C(C#N)=C\c1cn(Cc2ccc(F)cc2)c2ccccc12	-12%	-7%
63	Cc1cc(=O)n(CC(=O)N2CCCCC2)c2c1c(C)nn2C	2%	-2%
64	Cc1ccc(S(=O)(=O)N(CC(=O)N2CCCC2)c2cccc(Cl)c2)cc1	27%	264%[activator]
65	Cc1ccc2cccc(NC(=O)c3ccc(N4CCCCC4)c([N+](=O)[O-])c3)c2n1	-5%	-8%
66	Cc1cccc(/C=C(/C(=O)N(C)Cc2ccsc2)c2cccs2)c1	?	72%[activator]
67	Cc1ccc(C)c(NC(=O)C(Sc2ccccc2)c2ccccc2)c1 (configuration not stated)	14%	18%
68	CCCNC(=S)Nc1ccc(Cl)c(Cl)c1	18%	36%[activator]
69	Cc1cccc(CSc2cn(CC(=O)N3CCCCC3)c3ccccc23)c1	76%[activator]	31%[activator]
70	CCc1cccc(NC(=O)c2nn(C)c3c2COc2ccccc2-3)c1	194%[activator]	0%
71	O=C(Nc1ccc2oc(-c3cccnc3)nc2c1)c1ccc(-c2ccc(OC(F)(F)F)cc2)o1	7%	14%
72	CC(C)(C)c1ccc(C(=O)Nc2ccccc2C(=O)Cc2ccccc2)cc1	176%[activator]	21%
73	Cc1ccc(-c2cn3cccc(C)c3n2)cc1NS(=O)(=O)c1ccccc1	94%[activator]	131%[activator]
74	Cc1cc(N2CCN(C)CC2)nc2ccc(NC(=O)c3ccc(C(C)(C)C)cc3)cc12	-4%	-5%
75	CCCCn1c(SCc2cc(=O)oc3cc(C)ccc23)n[nH]c1=O	10%	43%[activator]
76	CC1(C)Cc2c(sc3c2c2nc(Cc4ccccc4)nn2c(=O)n3CC(=O)c2ccccc2)CO1	0%	12%
77	O=C(O)c1cccc(-c2cc3ccccc3oc2=O)c1	?	0%
78	O=c1[nH]cnc2c1ncn2[C@@H]1O[C@H](CO)[C@@H](O)[C@H]1O	6%	7%
79	CC(C)N1CCC(NC(=O)c2ccc(-c3ccccc3)cc2)CC1	10%	-5%
80	O=C(NCc1ccc(CN2CCCC2)cc1)C1CCCCC1	25%	-18%
81	Cc1[nH]c2nc3ccccc3n2c(=O)c1Cc1ccc(Cl)cc1	-4%	-9%
82	CN(C(=O)CSc1cn(CC(=O)N2CCOCC2)c2ccccc12)c1ccccc1	29%	8%
83	CCc1ccc(NC(=O)Nc2c(NC3CCCCC3)c3ccccc3oc2=O)cc1	1%	16%
84	O=C(COc1ncnc2ccccc12)Nc1ccc(Cl)c(Cl)c1	13%	4%
85	CCOc1ccccc1N(CC(=O)NCCSc1ccccc1)S(=O)(=O)c1ccccc1	-15%	32%[activator]
86	CCOc1ccccc1CNC(=O)CN1C(=O)CCn2nc(-c3cn(C)c4ccccc34)cc21	-13%	-17%
87	COc1ccc(C#CCNCc2ccc(OC)cc2OC)cc1	-8%	-13%
88	COC(=O)c1sc(-c2ccccc2)cc1NC(=O)Nc1ccccc1Cl	44%[activator]	2%
89	COC(=O)c1sccc1NC(=O)CC1(CC(=O)O)CCCC1	28%	16%
90	Cc1nc(N2CCN(C)CC2)ncc1-c1cc(=O)[nH]c(N2CCc3ccccc3C2)n1	18%	21%

# Copied from the list:
# cpd 68 – 2A Renilla = 36%[activator]
# cpd 66 – 2A Renilla = 72%[activator]

# Entries of single compounds as entered above. Screens in order: 2A firefly | 2A Renilla
# CCc1ccc(NC(=O)Nc2c(NC3CCCCC3)c3ccccc3oc2=O)cc1 in the list: 1% | 16%
# O=C(O)c1cccc(-c2cc3ccccc3oc2=O)c1 in the list: ? | 0%
# Cc1cc(=O)n(CC(=O)N2CCCCC2)c2c1c(C)nn2C in the list: 2% | -2%
# COC(=O)c1sc(-c2ccccc2)cc1NC(=O)Nc1ccccc1Cl in the list: 44%[activator] | 2%

# New compounds follow.
item	SMILES	2A firefly	2A Renilla
91	Cc1cccc(-c2cc(C(=O)Nc3cccnc3)c3ccccc3n2)c1	58%[activator]	1%
92	Cc1c(C)c(C)c(C(=O)O)c(C)c1C	8%	-9%
93	Cc1ccc2oc(C(=O)Nc3ccc(F)cc3)cc(=O)c2c1	0%	1%
94	C=CCNC(=S)N/N=C(/C)c1ccncc1	-1%	1%
95	CCn1c(=O)n(CC(=O)N(C)CC(=O)Nc2ccccc2Br)c2ccccc21	-2%	8%
96	CC(=O)c1ccc(NC(=O)C(C)n2nc(-c3ccccc3)ccc2=O)cc1 (configuration not stated)	-6%	-1%
97	COc1ccc(N2CCN(C(=O)Cn3cnc4sc(C)c(S(=O)(=O)N5CCC(C)CC5)c4c3=O)CC2)cc1	-17%	-16%
98	Cc1cc(C)c(/C=C/c2onc(C)c2S(=O)(=O)N2CCC(C(=O)NCc3ccco3)CC2)c(C)c1	-30%	-8%
99	CC(=O)Nc1ccc(NC(=O)C2CCN(c3nc4ccccc4nc3OC(C)C)CC2)cc1	-1%	-3%
100	Cc1ccc2c(c1)c1c(c(=O)n(Cc3ccccc3)c(=O)n1Cc1cccc(F)c1)n2C	-10%	-9%
101	CC(=O)Nc1ccc(OCCOCCOc2ccc(NC(C)=O)cc2)cc1	-15%[11.5 µM]	0%
102	CCCCCCCc1c(C(=O)O)cc(C)cc1C(=O)O	3%	0%
103	Cc1ccccc1C(=O)NN=C(C1CC1)C1CC1	0%	1%
104	COc1cc(/C=C(/C#N)c2ccc(C(=O)O)cc2)cc(Cl)c1OC(C)C	7%	-14%
105	C/C(=N/Nc1ccc(S(N)(=O)=O)cc1[N+](=O)[O-])c1ccc(C)cc1	0%	4%
106	COc1ccc(C)cc1S(=O)(=O)n1cc(C)nc1-c1ccccc1	21%	27%
107	CC1CCc2c(sc(NC(=O)Cc3ccccc3)c2C(=O)Nc2ccc(Cl)cc2)C1 (configuration not stated)	?	?
108	Cc1cc(C)cc(NC(=O)COC(=O)c2cccc(S(=O)(=O)N3CCc4ccccc43)c2)c1	-7%	-6%
109	Cn1c(=O)c2c(ncn2CC(=O)N(CCC#N)Cc2ccco2)n(C)c1=O	3%	-4%
110	COc1ccc(NC(=O)CN2CCCN(Cc3ccc(Cl)cc3)S2(=O)=O)cc1Cl	?	?
111	Cc1ccc(C(c2sc3nc(-c4ccco4)nn3c2O)N2CCC(O)CC2)cc1 (configuration not stated)	11%	11%

# Source: PubChem (National Center for Advancing Translational Sciences (NCATS))
